FGF22 binding: FGF22 (human) thermal shift binding; Q9HCT0; recombinant FGF22 thermal shift, SYPRO orange fluorescence; percent of sucrose octasulfate shift, DMSO zero; calls only at 9.99 µM; 340,000 tested, 1.5% active;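 active means melting point raised past a set limit in the mean and every replicate; inconclusive means no clear call; three in four hits are not shown here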
Target sequence (Q9HCT0 whole entry, looked up): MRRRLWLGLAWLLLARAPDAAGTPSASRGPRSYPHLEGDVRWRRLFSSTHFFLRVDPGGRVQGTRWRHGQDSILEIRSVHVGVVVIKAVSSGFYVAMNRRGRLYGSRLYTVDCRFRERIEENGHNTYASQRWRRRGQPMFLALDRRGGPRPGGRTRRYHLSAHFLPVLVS
Beta apoptosis: blocks beta cell apoptosis. INS-1E cytokine-induced death, ATP luminescence, 48 h; percent of positive-control rescue, neutral wells zero. protection from apoptosis, % (test concentration not listed). 300,000 tested, 0.8% active. AID 435005;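 active means all replicates at 75% or more, or half of them and the mean; inconclusive means half reach 75% but not the mean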;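 further: 0% = cytokine-treated negative control wells and 100% = positive control rescue; higher means more ATP so stronger rescue from cytokine killing; wells of about 40 µL received 100 nL stock; the first replicate is given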
ALR inh: inhibitors of human sulfhydryl oxidase ALR; P55789; purified ALR, DTT oxidation, H2O2 HRP-luminol luminescence; inhibition, % (test concentration not listed); 290,000 tested, 3.8% active;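 active means mean and each replicate at 75% or more; inconclusive means only one of the two met; inactive means neither met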;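 further: stock transfer was 7.5 nL into about 7.5 µL; 0% = neutral wells and 100% = wells with inactivated enzyme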
Target sequence (P55789 whole entry, looked up): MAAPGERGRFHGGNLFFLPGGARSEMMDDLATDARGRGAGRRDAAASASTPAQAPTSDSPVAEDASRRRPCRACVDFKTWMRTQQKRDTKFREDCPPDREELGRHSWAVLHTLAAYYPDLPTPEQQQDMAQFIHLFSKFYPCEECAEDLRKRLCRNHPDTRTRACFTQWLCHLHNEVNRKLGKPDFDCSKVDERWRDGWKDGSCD
rRNA inh HTS: inhibitors of bacterial rRNA selective over humanized ribosomes; 350,000 tested, 1.6% active; GFP signal change (wild-type ribosome), % (concentration not given with the values); E. coli WT GFP vs humanized-ribosome RFP mutants, fluorescence, 24 h; active compounds read low; DMSO median 0, no signal -100; AID 720706;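 active means significant combined selectivity score with lowered wild-type GFP, culture density cut under 30%, mutant RFP and density less affected; inactive means any of these conditions unmet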; further: one replicate is shown; some compounds called inactive have numbers as strong as hits
MLL AF4-AF9 inh: MLL-AF4/AF9 protein interaction inhibition; P42568; AlphaScreen, biotin-AF4 peptide binding to FLAG-AF9; inhibition, % at 10 µM; 350,000 tested, 0.47% active;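 active means every replicate reaching a set inhibition limit, whatever the replicate mean, cut at about 25% in these data; inconclusive means mean inhibition reaches that limit but some replicates miss it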;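 further: 0% = plate neutral control median and 100% = total signal loss; the record names both 10 and 1 µM as test concentration; the first replicate is given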
Target sequence (P42568 whole entry, looked up): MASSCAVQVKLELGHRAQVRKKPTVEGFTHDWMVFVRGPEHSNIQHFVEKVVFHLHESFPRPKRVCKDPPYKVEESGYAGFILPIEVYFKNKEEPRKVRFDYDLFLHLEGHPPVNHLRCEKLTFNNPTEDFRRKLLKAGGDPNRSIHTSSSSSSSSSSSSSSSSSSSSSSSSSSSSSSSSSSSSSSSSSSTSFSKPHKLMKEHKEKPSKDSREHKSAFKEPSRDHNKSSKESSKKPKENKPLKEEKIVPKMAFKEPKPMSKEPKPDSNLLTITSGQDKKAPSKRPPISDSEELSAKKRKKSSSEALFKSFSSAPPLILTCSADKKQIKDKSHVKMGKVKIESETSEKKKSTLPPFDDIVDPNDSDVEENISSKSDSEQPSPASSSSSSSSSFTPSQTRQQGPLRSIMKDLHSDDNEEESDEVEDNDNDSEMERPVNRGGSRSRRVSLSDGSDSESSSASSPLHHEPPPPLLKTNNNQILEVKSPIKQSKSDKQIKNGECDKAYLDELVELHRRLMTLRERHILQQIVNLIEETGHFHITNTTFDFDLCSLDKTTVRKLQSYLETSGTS
T cruzi repl: T. cruzi replication inhibition; T. cruzi beta-gal in NIH3T3, luminescence, 90 h; inhibition, % (no concentration beside the values); 300,000 tested, 1.4% active; AID 1885;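 active means mean inhibition across valid replicates above about 55%, limit read from the data; inconclusive means mean below that limit but half or more replicates reach it; inactive means mean below it, under half of replicates reach it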;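 further: signal also drops with host cell toxicity which is not excluded here; 0% = plate median of DMSO wells and 100% = zero luminescence signal; higher percent means less beta-gal luminescence so fewer parasites; stock transfer was 50 nL into about 50 µL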
Calb FLC: C. albicans growth modulation with fluconazole; C. albicans CaCi-2 (fluconazole-resistant clinical isolate) + fluconazole, Alamar Blue growth, 48 h; growth inhibition, % (no concentration beside the values); 300,000 tested, 0.57% active; AID 1979;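 active means most replicates above 75%; inconclusive means exactly half above 75%; inactive means most below 75%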;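 further: all wells also contain fluconazole at 8 µg/ml as a sub-toxic cotreatment; 0% = median of DMSO wells and 100% = median of geldanamycin control wells; wells of about 8 µL received 7.5 nL stock; the first replicate is given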
RanGTP-Imp inh: disruptors of Ran-importin-beta complex formation – biochemical, FRET, CFP-Ran, YFP-importin-beta, homogeneous, primary screen; cell-free CFP-Ran/YFP-importin-beta FRET ratio; inhibition, % (concentration not given with the values); 300,000 tested, 1.1% active; AID 2216;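 active means most replicates above 15%; inconclusive means exactly half above 15%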;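 further: 0% = DMSO wells and 100% = Ran loaded with GDP instead of GTP; wells of about 40 µL received 100 nL stock; the first replicate is given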
rRNA inh HTS OD600: second read-out of rRNA inh HTS, no call of its own (marks repeat the call); OD600 change, %; measured here: OD600 growth;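 optical density of the mix in the first replicate; 0 = DMSO median and -100 = no signal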
rRNA inh HTS RFP: further read-out of rRNA inh HTS, marked with its call; RFP signal change, %; measured here: RFP humanized mutant strains;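 first replicate; 0 = DMSO median and -100 = no signal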
Numbers without * were called inactive; i = inactive; ? = inconclusive; . = no result given. Some of the compounds tested; the hit share may differ from the screen's.

SMILES | FGF22 binding | Beta apoptosis | ALR inh | rRNA inh HTS | rRNA inh HTS OD600 | rRNA inh HTS RFP | MLL AF4-AF9 inh | T cruzi repl | Calb FLC | RanGTP-Imp inh
CN(C(=O)COC(=O)CNC(=O)CNC(=O)c1ccc(Cl)cc1Cl)c1ccccc1 | i | -3 | -4 | 10 | 4 | -6.8 | -1.7 | -3 | -7 | 0.4
Brc1ccc(C2=Nn3c(nnc3-c3cccnc3)SC2)s1 | . | -1 | 24 | . | . | . | . | 10 | -2 | -0.3
COc1cc(C2CC(=O)NC3=C2C(=O)CC(C)(C)C3)ccc1O (stereo not drawn) | . | . | . | . | . | . | -0.7 | 5 | -3 | ?
NNC(=O)c1ccc(N2CCc3ccccc32)c([N+](=O)[O-])c1 | . | -6 | -17 | -4 | 2 | 6.5 | 5.4 | -1 | 14 | -1.1
O=C(NC1CCCCC1)c1ccc(CNc2nc(=S)[nH]c3ccccc23)cc1 | i | 2 | 18 | 5 | -7 | 0.3 | -0.8 | 8 | -1 | 3.3
CCOC(=O)N1CCC(NC(=O)CN2C(=O)CCSc3ccccc32)CC1 | i | . | 23 | 2 | 1 | -0.7 | -1.4 | -1 | 2 | -2.7
Oc1c(Cl)cc(CN2CCCCC2)c2cccnc12 | . | 111* | 22 | . | . | . | . | 53 | -8 | 7.9
COc1ccc(S(=O)(=O)Oc2ccc3c(c2)O/C(=C\c2cccnc2)C3=O)cc1 | i | -5 | -14 | 22 | 7 | -0.5 | 1.8 | -2 | 26 | 10
COc1cc(C(=O)NNC2=CC(=O)CC(C)(C)C2)cc(OC)c1OC | . | 1 | . | . | . | . | . | -30 | 37 | 6.6
COc1ccc(NC(=O)c2cc(SC)ccc2Cl)cc1 | . | 52 | -11 | . | . | . | . | -10 | 0 | -2.3
CC1(C)CNC(=O)C=C(c2ccccc2)C1 | . | -9 | 0 | . | . | . | . | -3 | -4 | 23*
CC(=O)Nc1ccc(C(=O)N2CCN(S(=O)(=O)c3ccc4c(c3)OCCCO4)CC2)cc1 | i | -4 | -7 | -1 | 3 | -3.1 | 4.2 | . | . | .
CCOc1ccccc1OCCCOc1ccc([N+](=O)[O-])cc1Cl | . | -6 | 40 | . | . | . | . | 25 | 1 | -0.5
CS(=O)(=O)Nc1ccc2c(c1)nc1n2CCOC1 | . | 2 | . | . | . | . | . | -3 | 0 | 3.5
Cc1ncn(-c2ccc(C(=O)Oc3ccccc3)cn2)n1 | i | -2 | -3 | -15 | -18 | -4.2 | -2.0 | -2 | -18 | -2.9
CC(=O)Nc1ccc(S(=O)(=O)N2CCN(CC(=O)NC3CCCC3)CC2)cc1 | . | . | -2 | . | . | . | . | 6 | 0 | -1.6
O=C(COc1ccc(Br)cc1)N1CCCCCC1 | . | 3 | -2 | . | . | . | . | 1 | 2 | 5.9
Cc1cccc(N2CCN(C(=O)c3cc(S(=O)(=O)N4CCOCC4)cn3C)CC2C)c1 (stereo not drawn) | i | -2 | 15 | 0 | -6 | -2.1 | 2.0 | 6 | -4 | 2.1
CC1CCc2sc3c(c2C1)c(=O)n(CC(=O)O)c(=O)n3Cc1ccc(Cl)cc1 (stereo not drawn) | i | -8 | . | -14 | -2 | -0.7 | -4.7 | -7 | -7 | 3.3
O=C(Nc1ccc(Cl)cc1)Nc1ccc(N2CCOCC2)cc1 | . | 11 | . | . | . | . | . | 4 | 19 | -0.1
Cn1c(=O)c2ccccc2n(Cc2ccccc2F)c1=O | . | 4 | -22 | . | . | . | . | -5 | 8 | -2.4
CCN1C=C(Cc2ccc(F)cc2)C2=C(C1)C(c1ccc(F)cc1)C(C#N)=C(N)O2 (stereo not drawn) | . | -3 | 99* | . | . | . | . | 25 | 11 | 4.5
O=C(COC(=O)C1CCN(/C=C/C(=O)C(F)(F)F)CC1)Nc1cccc(F)c1 | . | -3 | -20 | . | . | . | . | -17 | -1 | 3.0
Nn1c(SCC(=O)Nc2ccccc2)nnc(Cc2ccccc2)c1=O | i | . | 20 | 0 | -3 | -2.8 | 1.2 | -10 | -9 | -1.3
O=C(N/N=C/c1ccc(OCc2ccccc2)cc1)c1ccco1 | i | -6 | -3 | 0 | 6 | -1.5 | -0.8 | -15 | 3 | -2.3
COc1cc(C(CCN2CCCC(C)C2)c2c(OC)cc(OC)c3c(-c4ccccc4)cc(=O)oc23)cc(OC)c1OC (stereo not drawn) | . | 14 | . | -42 | -38 | 6.9 | . | 48 | 1 | 3.7
CCN(CC(=O)Nc1c(F)cccc1F)C(=O)COc1ccc2c(C)cc(=O)oc2c1 | i | -2 | -6 | 20 | 10 | -1.0 | -3.2 | -6 | 5 | -3.0
Cc1cc(C)nc(NC(=O)C(c2ccccc2)c2ccccc2)c1 | . | 14 | -22 | . | . | . | . | 15 | 13 | -3.1
COc1ccc([C@H]2CC(=O)C=C(c3cccc(C(C)C)c3)C2)cc1 | i | -3 | -1 | -1 | 0 | -15 | 0.6 | . | . | .
NC1=NC[C@H](Cc2ccccc2)N1CC1CCCCC1 | i | 11 | -8 | 2 | 7 | 6.1 | 6.6 | 29 | -11 | -4.0
CCOC(=O)C1=C(C)OC(N)=C(C#N)C1c1cc2c(cc1[N+](=O)[O-])OCO2 (stereo not drawn) | i | -1 | 0 | -3 | -6 | -4.0 | 5.0 | -14 | 15 | -2.2
O=C(NCc1ccccn1)C(=O)Nc1nc(-c2ccccc2)cs1 | i | -13 | -7 | -3 | -7 | 1.5 | -2.0 | 0 | -2 | -1.7
O=C(Cc1cccc2ccccc12)Nc1ccccc1 | i | -9 | -1 | 4 | -3 | 4.5 | -3.3 | -6 | -2 | -0.1
Cc1cc2c(cc1C)N(Cc1ccccc1)C1=NCCCN12 | i | 11 | 3 | -3 | -2 | -1.3 | -12 | 37 | 1 | -2.3
CC(C)n1c(/C=C/[C@@H](O)C[C@@H](O)CC(=O)O)c(-c2ccc(F)cc2)c2ccccc21 | i | 8 | -9 | -9 | -7 | 6.2 | 9.9 | -11 | 47 | -1.3
CCCCc1ccc(NC(=O)CSc2nc(=O)n(CCN(C)C)c3c2CCC3)cc1 | i | . | 98* | 6 | 5 | 3.1 | -0.6 | 37 | 5 | -5.6
COc1ccc(Cc2nnc(NS(=O)(=O)c3ccc(NC(C)=O)cc3)s2)cc1 | i | 0 | -10 | 9 | 11 | 2.2 | -0.2 | -13 | -1 | 0.4
O=C1COc2ccc(C(=O)COC(=O)/C=C/c3ccc(Br)o3)cc2N1 | i | . | 6 | 2 | 12 | -0.7 | -17 | -8 | 21 | 2.1
Cc1cccc(Nc2nc(OCC#N)nc(N(C)C)n2)c1 | i | . | . | 3 | 8 | 0.8 | -2.4 | -15 | 6 | 0.7
COc1ccc(CN(C(=O)COc2ccc(C)c(C)c2)C2CCS(=O)(=O)C2)cc1OC (stereo not drawn) | i | 0 | 39 | 5 | 0 | -2.7 | -0.8 | -4 | 6 | -2.1

An excerpt from the list above, for reference:
SMILES | FGF22 binding | Beta apoptosis | ALR inh | rRNA inh HTS | rRNA inh HTS OD600 | rRNA inh HTS RFP | MLL AF4-AF9 inh | T cruzi repl | Calb FLC | RanGTP-Imp inh
COc1ccc(Cc2nnc(NS(=O)(=O)c3ccc(NC(C)=O)cc3)s2)cc1 | i | 0 | -10 | 9 | 11 | 2.2 | -0.2 | -13 | -1 | 0.4
O=C1COc2ccc(C(=O)COC(=O)/C=C/c3ccc(Br)o3)cc2N1 | i | . | 6 | 2 | 12 | -0.7 | -17 | -8 | 21 | 2.1
Cc1cccc(Nc2nc(OCC#N)nc(N(C)C)n2)c1 | i | . | . | 3 | 8 | 0.8 | -2.4 | -15 | 6 | 0.7
COc1ccc(CN(C(=O)COc2ccc(C)c(C)c2)C2CCS(=O)(=O)C2)cc1OC (stereo not drawn) | i | 0 | 39 | 5 | 0 | -2.7 | -0.8 | -4 | 6 | -2.1

Later entries
SMILES | FGF22 binding | Beta apoptosis | ALR inh | rRNA inh HTS | rRNA inh HTS OD600 | rRNA inh HTS RFP | MLL AF4-AF9 inh | T cruzi repl | Calb FLC | RanGTP-Imp inh
CCCc1cc(=O)[nH]c(SCC(=O)Nc2cc(C)on2)n1 | i | -5 | -3 | 2 | 1 | -1.9 | -1.9 | -6 | 13 | 3.8
CCOc1ccc(N2C(=O)C3CCCN3C2=S)cc1 (stereo not drawn) | i | -3 | 0 | -4 | 6 | -1.1 | 2.0 | . | . | .
OC1(Cc2cc(-c3ccccc3)no2)CCN(CCCc2ccccc2)CC1 | i | -6 | -3 | -3 | -9 | 0.0 | 5.5 | 36 | 2 | 5.5
COc1ccc(-c2ncccc2OC(=O)C23CC4CC(CC(C4)C2)C3)cc1 | . | -4 | 40 | . | . | . | . | -11 | 2 | 5.4
OCCN(Cc1ccccc1)CC(O)COc1ccc(-c2ccccc2)cc1 (stereo not drawn) | i | -1 | -15 | -59 | -78 | -28 | -6.8 | 24 | -36 | 2.9
CN(C)S(=O)(=O)c1cccc(NC(=S)N/N=C/C(=O)c2ccccc2)c1 | i | . | 9 | -27 | -24 | -4.5 | 7.0 | 14 | 3 | 1.2
CCOC(=O)COn1c(=O)c(-c2ccc(F)cc2)[n+]([O-])c2ccccc21 | i | -5 | -7 | -3 | -5 | -1.1 | -1.9 | -21 | -1 | 1.0
CC1(c2ccccc2)NC(=O)N(CCN2C(=O)c3ccccc3C2=O)C1=O (stereo not drawn) | . | -2 | . | . | . | . | . | -8 | 15 | -0.3
CC(=C\c1ccccc1)/C=C1/SC(=S)N(CCC(=O)O)C1=O | i | 2 | 24 | -12 | -20 | 3.0 | -0.2 | 9 | -2 | 0.6
O=C(Nc1ccc(N2CCOCC2)c(Cl)c1)c1cc2ccccc2o1 | . | 11 | -2 | . | . | . | . | 22 | 2 | -1.1
Cc1ccc2cccc(SCC(=O)N3CCOCC3)c2n1 | . | 4 | -3 | . | . | . | . | -15 | 12 | 0.8
Cn1cccc1CC(=O)NNC(=S)NC(=O)c1ccccc1Br | i | -2 | 33 | -9 | 17 | 4.0 | -0.6 | -17 | 47 | ?
Cn1c(Cc2ccccc2)nnc1SCC(=O)Nc1ccccc1N1CCOCC1 | . | -7 | -4 | . | . | . | . | 2 | 14 | -3.0
O=C(Nc1ccc(F)cc1F)N1CCCC(c2nc(-c3ccc(F)cc3)no2)C1 (stereo not drawn) | i | 3 | 1 | -32 | -35 | -7.0 | -2.8 | -5 | 10 | 0.7
O=C(Cc1ccc([N+](=O)[O-])cc1)NCc1ccncc1 | i | 2 | -2 | 11 | 2 | 2.0 | -2.1 | 9 | -4 | -1.2
CC(C)CN(C(=O)CSc1nc2ccccc2c(=O)n1C)C1CCS(=O)(=O)C1 (stereo not drawn) | i | -5 | -3 | 15 | 0 | 4.9 | -0.3 | . | . | .
C=CCn1c(SCC(=O)Nc2ccccc2C)nnc1-c1ccncc1 | . | 0 | -11 | . | . | . | . | -9 | -7 | 2.9
Cc1ccc(N2CC(C(=O)Nc3nnc(SCC(N)=O)s3)CC2=O)cc1 (stereo not drawn) | i | -2 | -8 | 8 | 15 | -3.1 | -0.6 | -6 | 1 | 1.5

Source: PubChem BioAssay
